TRPML1 inh – inhibitors of human TRPML1 channel. Q9GZU1. TRPML1-inducible cells, Ca2+ dye fluorescence, FDSS; stronger effect = lower value; inhibition of EC80 agonist-evoked calcium signal. activity change, negative = inhibition, % (no concentration beside the values). hit rate 0.02% among 390,000. AID 624415; in the data active means activity change below about -50%; inconclusive means about -30% to -50%; inactive means above about -30%;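 note: stimulus is agonist 54-4 at its EC80 concentration; % is set by controls: 0 for no effect and ±100 for the full control effect; compound concentration not given in the record; the text of the record puts the active cut at -80%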
Target sequence (Q9GZU1 whole entry, looked up): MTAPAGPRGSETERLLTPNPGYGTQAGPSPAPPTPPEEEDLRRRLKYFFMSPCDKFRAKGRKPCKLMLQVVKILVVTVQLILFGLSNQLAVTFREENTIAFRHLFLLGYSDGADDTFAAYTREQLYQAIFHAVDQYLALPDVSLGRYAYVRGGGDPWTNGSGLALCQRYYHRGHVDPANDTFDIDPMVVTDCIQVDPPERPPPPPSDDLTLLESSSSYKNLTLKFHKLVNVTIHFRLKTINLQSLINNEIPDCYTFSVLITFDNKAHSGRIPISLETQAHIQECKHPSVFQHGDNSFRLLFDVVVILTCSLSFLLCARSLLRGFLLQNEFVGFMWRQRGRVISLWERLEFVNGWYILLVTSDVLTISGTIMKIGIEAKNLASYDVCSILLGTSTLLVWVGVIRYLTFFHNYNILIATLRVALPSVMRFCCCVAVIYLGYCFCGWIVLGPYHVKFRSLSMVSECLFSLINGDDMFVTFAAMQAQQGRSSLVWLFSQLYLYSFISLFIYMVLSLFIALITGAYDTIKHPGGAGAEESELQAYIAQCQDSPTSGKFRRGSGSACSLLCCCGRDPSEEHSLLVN
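Calcium fluorescence in TRPML1-DL cells induced overnight with Tet: a 110 s read after compound pin addition, then a 110 s antagonist read after challenge with 54-4 at 4 uM final (EC80).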
Six1-Eya2 inh – blocks human Six1 binding to Eya2. AID 651725. AlphaScreen GST-Six1/His-Eya2 binding, biochemical; stronger effect = lower value; control for the full effect not named in the record. hit rate 0.56% among 360,000. activity change, % (test concentration not listed); in the data active = activity change below about -65%; inconclusive = about -30% to -65%; inactive = above about -30%; note: % is set by controls: 0 for no effect and ±100 for the full control effect; compound concentration not given in the record
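Compounds are tested against tagged Six1 and Eya2 proteins bridged by glutathione donor and nickel acceptor beads; after a one-hour incubation at 37 °C without light, AlphaScreen emission is recorded.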
D2 agonist – agonists of human D2 dopamine receptor (beta-arrestin). P14416. AID 624465. DiscoveRx PathHunter D2 beta-arrestin, luminescence, 90 min; 100% = 57 uM dopamine signal. activation, % (test concentration not listed). hit rate 0.084% among 360,000; in the data active = activation above about 40%; inconclusive = about 15% to 40%; inactive = below about 15%; note: compound concentration not given in the record; the text of the record calls up to 30% inactive
Target sequence (P14416 whole entry, looked up): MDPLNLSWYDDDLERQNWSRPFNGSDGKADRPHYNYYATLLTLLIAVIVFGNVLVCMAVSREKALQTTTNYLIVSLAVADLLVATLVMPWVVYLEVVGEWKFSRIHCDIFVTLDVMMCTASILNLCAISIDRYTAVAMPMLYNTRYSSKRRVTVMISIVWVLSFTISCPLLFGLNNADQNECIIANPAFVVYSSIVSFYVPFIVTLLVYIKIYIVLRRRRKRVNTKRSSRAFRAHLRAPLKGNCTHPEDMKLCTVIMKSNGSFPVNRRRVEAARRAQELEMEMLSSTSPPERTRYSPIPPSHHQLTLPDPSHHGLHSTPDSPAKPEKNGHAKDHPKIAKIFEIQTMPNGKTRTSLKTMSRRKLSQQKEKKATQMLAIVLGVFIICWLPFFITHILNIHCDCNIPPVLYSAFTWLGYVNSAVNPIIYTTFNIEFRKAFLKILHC
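Agonist mode: compounds alone added to overnight-plated D2 PathHunter cells for 90 min at 37 C, with 57 uM final dopamine (EC100) defining full response. Beta-arrestin recruitment detected by chemiluminescent reagent, read after 1 h at ambient temperature.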
D2 potentiator – positive allosteric modulators of human D2 dopamine receptor; potentiation, % (test concentration not listed); P14416; DiscoveRx D2 beta-arrestin cells, luminescence, 90 min; 100% = 57 uM dopamine signal; AID 624464; hit rate 0.23% among 360,000; active = potentiation of 50% or more; inconclusive = 30% to 50%; inactive = 30% or less;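 note: compound concentration not given in the record; tested on top of an EC20 dose of dopamine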
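PathHunter beta-arrestin assay in DiscoveRx D2 cells. Compounds were added with an EC20 of dopamine (50 nM final) for 90 min at 37 deg C. Luminescence was read 1 h after detection reagent, with 57 uM dopamine as the EC100 control.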
TRPML1 ag – activates the human TRPML1 channel. Q9GZU1. TRPML1-expressing cells, Ca2+ dye fluorescence, FDSS; host cell line not named in the record; reference of the full effect not given here. activation, % (test concentration not listed). hit rate 0.12% among 410,000. AID 624414; in the data active = activation above about 50%; inconclusive = about 30% to 50%; inactive = below about 30%; note: 0% is about no effect; the text of the record puts the active cut at 80%
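Tetracycline-induced TRPML1-DL cells are seeded and incubated overnight before loading with a no-wash Ca2+ dye and quencher. Agonist activity is taken from the 110 s fluorescence read following compound pin-transfer on an FDSS, before EC80 54-4 challenge.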
PINK1 expr mod – modulators of PINK1 expression. PINK1 immunofluorescence, high-content cytometry, 24 h. hit rate 0.2% among 410,000. Potency, µM (titrated, usually from 76.6 µM), for inactives: top-dose activation (PINK1 increase), most hits filed as activators; active = well fitted activation curve with a large enough effect; inconclusive = small, poorly fitted or top-dose-only effect; inactive = flat fitted curve, though single readings scatter; cell line not stated here;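 note: potency is the fitted concentration of half-maximal effect; % of control where 0% means no effect; nearly all actives have a fitted effect of over 65% in size; a mitochondrial uncoupler was the plate control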
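PINK1 protein, normally rapidly degraded, was detected by immunofluorescence after 24 hour compound treatment of a stable cell line. Titration data (5 concentrations) came from laser-scanning cytometry, with CCCP-treated wells as controls.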
* = called active by the depositor; ? = inconclusive; · = not tested or not shown; & = joins results of further samples; [ ] = dose if it differs, or a comment.

Sequence of screens: D2 potentiator	TRPML1 ag	D2 agonist	Six1-Eya2 inh	TRPML1 inh	PINK1 expr mod
O=C(NC1CCCC1)C(c1ccncc1)N(C(=O)c1csnn1)c1ccccc1F (stereo not given)
    -1	-0.7	1.5	10	1	1.5%
O=C(Cn1cccc1C(=O)c1ccccc1)NCc1ccc(Cl)cc1
    -2	-0.1&0.5	-6.0	-2	-12&-4	8.5%&0.8%
COc1ccc(NC(=O)C(CC(C)C)NS(=O)(=O)c2ccc3c(c2)CCN3C(C)=O)cc1OC (stereo not given)
    -2	0.2	1.3	-5	11	1.9%[38.3 µM]
O=C(CCC1N=C2c3ccccc3N=C(SCC(=O)Nc3ccccc3F)N2C1=O)NCc1cccs1 (stereo not given)
    ·	0.7	·	·	-28	-1.3%
CC(C)Cn1c(=O)c(CCC(=O)Nc2ccc(N3CCOCC3)cc2)nc2cc(Cl)ccc21
    3	0.1	-1.0	0	0	6.3%
COc1cccc(N(CC(=O)Nc2cccc(C(C)=O)c2)S(C)(=O)=O)c1
    0	-0.1	-2.2	1	-2	1.6%
CSc1nc(N)nc2c1ncn2C1OC(CO)C(O)C1O (stereo not given)
    -5	0.0	-4.1	1	5	2.7%
C=CCc1cc(Cl)ccc1OCCOCCN(C)C
    -13	1.2	-0.2	1	-12	1.8%
Brc1c(C[n+]2ccccc2)nc2ccccn12
    -4	-0.3	3.5	8	6	0.6%
COc1ccc(S(=O)(=O)NCc2cccnc2)cc1C(=O)Nc1ccccc1
    -8	-0.4	-2.6	-9	23	2.4%
COc1cccc(-c2oc3c(c2C(=O)OCCN(C)C)C(O)CCC3)c1 (stereo not given)
    ·	-0.1	·	-6	·	-0.8%
CCCCN1C(=O)C(CC(=O)NCCN2CCOCC2)CC(C(=O)N(CC)CC)=C1C (stereo not given)
    -4	-0.3	-8.9	5	-7	0.2%
COC(=O)[C@@H](NS(=O)(=O)c1cc(Br)ccc1Br)C(C)C
    0	0.7	-6.4	5	15	3.2%
CCOC(=O)C1CCN(Cc2ccc(C(=O)OC)cc2)CC1
    -18	0.4	1.5	4	-3	-0.6%[38.3 µM]
CCOC(=O)c1ccc(NC(=O)c2ccc[n+]([O-])c2)cc1
    -8	-0.6	-6.0	5	-1	0.5%

Ordered by value in D2 agonist (falling): 3 of the compounds above.
SMILES	D2 agonist
CCOC(=O)C1CCN(Cc2ccc(C(=O)OC)cc2)CC1	1.5
COc1ccc(S(=O)(=O)NCc2cccnc2)cc1C(=O)Nc1ccccc1	-2.6
CSc1nc(N)nc2c1ncn2C1OC(CO)C(O)C1O (stereo not given)	-4.1

Going on with the list:
Sequence of screens: D2 potentiator	TRPML1 ag	D2 agonist	Six1-Eya2 inh	TRPML1 inh	PINK1 expr mod
O=C(c1ccco1)N1CCN(C(=O)c2cc3sccc3n2Cc2ccccc2)CC1
    3	2.9	1.5	-6	39	-2.0%[38.3 µM]
CCN(C(C)=O)c1nc(CSc2nnc(NC(C)C)s2)cs1
    15	-0.9	1.1	-5	-2	-4.2%
CCOc1ccc(C(=O)N2CCN(c3ccccn3)CC2)cc1
    -1	0.7	0.8	-15	-5	-2.1%
Cc1ccc(S(=O)(=O)Cc2nc(-c3ccc(C(=O)NCc4ccccc4C)cc3)oc2C)cc1
    ·	1.1	·	·	-19	3.7%
C#CCNc1ccc(C(=O)OCC)cc1
    13	0.9	-4.7	-9	-10	2.4%
CCOc1ccc(C(=O)OCC(=O)N2CCOCC2)cc1OCC
    -3	0.1	3.4	12	-8	3.4%
CCOC(=O)Cn1nnnc1CN(Cc1cccs1)Cc1cc2cc(C)cc(C)c2[nH]c1=O
    -19	-0.7	-3.8	-10	-8	-14%[38.3 µM]
CC(C)(C)c1ccc(C(=O)N2CCC(C(=O)c3ccccc3)CC2)cc1
    -10	0.7	-1.0	3	17	-1.3%
Cc1ccc(C)c(N=Cc2cc3c(cc2[N+](=O)[O-])OCO3)c1
    1	-0.2	7.8	5	7	3.1%
C(=N\n1cnnc1)/c1cccc(OCCOc2ccccc2)c1
    -7	-0.4	0.2	-9	-12	2.0%
COc1ccc(OC)c2sc(N3CCN(C(=O)c4ccc5ncsc5c4)CC3)nc12
    1	0.6	1.6	-9	-3	2.0%
COCCn1c(N)c(Sc2ccc(C)cc2)c(=O)[nH]c1=O
    -3	-0.8	-4.5	3	-8	3.1%
Cc1cc(C)cc(OCc2nnc(SCC(=O)N3CCCCC3)o2)c1
    -2	-0.1	-2.2	3	5	1.5%
CN(C1=NS(=O)(=O)c2ccccc21)c1ccc(OC(=O)c2ccccc2)cc1
    -3	-0.1	-0.7	-10	16	9.0%
CCCCCOc1ccc(/C=N/NC(=O)c2nnn(-c3nonc3N)c2CN2CCCCCC2)cc1
    -3	-0.5	-3.2	-4	5	4.6%
CCOC(=O)Cc1nnc(NC(=O)CCc2ccccc2)s1
    -1	0.7	1.2	-5	-12	3.3%
COc1ccc(C(OC(=O)c2ccco2)C(=O)NC(C)(C)C)cc1 (stereo not given)
    -2	-1.8	-5.7	5	13	-0.3%
CCC(C)NS(=O)(=O)c1ccc(OCC(=O)NCc2ccco2)cc1 (stereo not given)
    -3	0.1	-0.3	5	-2	0.7%
Cc1cccc(NC(=O)CSc2ccc(-c3ccc4c(c3)OCO4)nn2)c1C
    -3	1.7	-3.4	-1	0	?
Cc1nn(CC(=O)Nc2cc(S(=O)(=O)N3CCOCC3)ccc2Cl)c(C)c1[N+](=O)[O-]
    -11	-1.3	-3.2	4	-10	1.0%
CC(C)C1C(=O)N(Cc2cn(CCC3OCCO3)nn2)CCS(=O)(=O)N1Cc1ccc(-c2ccccc2C(F)(F)F)cc1 (stereo not given)
    -4	-0.5	-3.0	-5	·	1.0%
CNc1ccc(Br)cc(C(=O)/C=C/c2ccc(Cl)cc2Cl)c1=O
    -3	5.4	-6.3	-6	-8	6.9%
CCN1C(=O)c2cccc3c(S(=O)(=O)NCc4ccccn4)ccc1c23
    -3	0.8	-3.2	1	-13	1.2%
COc1ccc(-c2cnc(SCC(=O)Nc3ccc4c(c3)OCO4)n2Cc2ccco2)cc1
    -11	0.8	-0.5	?	21	-1.4%
Cc1cc(NC(=O)COC(=O)/C=C/c2ccc(C)o2)no1
    -2	-0.3	2.6	3	4	8.2%
CCN(c1ccccc1)S(=O)(=O)c1ccc(C(=O)NCC2(N(C)C)CCCCC2)cc1
    -7	3.4	-2.9	-3	-1	0.3%
OCCNCc1cccc(OCc2ccccc2Cl)c1
    -21	-0.9	-5.1	3	-7	5.4%
CC1=NN(C(N)=S)C(=O)C1N=Nc1ccc(F)cc1 (stereo not given)
    -7	3.5	-2.6	-8	2	-0.8%
CCC(C)NC(=O)c1sc2nc(C)c(C(=O)Nc3ccc(C)cc3C)c(-c3ccc(Br)cc3)c2c1N (stereo not given)
    ·	-0.1	·	·	6	1.7%
COC(=O)c1cc2ccsc2n1CC(=O)N(C)c1ccccc1
    -3	0.4	-3.3	1	6	-2.4%[38.3 µM]
O=C(CSc1nc2c([nH]c3ccccc32)c(=O)n1-c1ccccc1)Nc1cccc(C(F)(F)F)c1
    ·	0.1	·	·	-5	6.1%
CS(=O)(=O)Nc1ccc(Cc2ccc(NS(C)(=O)=O)cc2)cc1
    14	-0.2	0.6	4	2	1.1%
Cc1ccc(C(=O)O/N=C(\N)c2ccccn2)cc1C
    14	0.1	9.4	17	0	-1.7%
O=C(CSc1nc(O)c(Cc2ccccc2)c(=O)n1-c1ccccc1)N1CCOCC1
    8	-1.4	-2.5	0	-7	-0.8%
CN(C)c1nc2ccccc2n(C)c1=O
    -3	0.6	5.4	0	3	0.7%
COc1ccccc1NS(=O)(=O)c1ccc(O)c(C(=O)OCC(=O)N2CCc3ccccc32)c1
    0	2.0	2.2	-6	-18	2.3%
CCCc1ccc(Oc2cc(C)nc(N3CCOCC3)n2)cc1
    11	-0.6	3.5	32	-7	21%
COc1ccc(NC2=C(C(C)=O)C(c3ccc(OC)c(OC)c3)C(C(C)=O)C(C)(O)C2)cc1 (stereo not given)
    18	-0.8	4.9	-11	15	-0.2%
Cc1ccccc1-c1nc(SCc2ccccn2)c2c(=O)n(C)c(=O)n(C)c2n1
    3	0.5	3.7	3	14	3.1%
Cc1cccc(C(=O)OC(C)C(=O)NC2CCCc3ccccc32)c1O (stereo not given)
    -8	5.5	2.0	3	-20	5.4%
CCCCn1cnc2cc(NCc3cccc(OC)c3O)ccc21
    -1	2.5	0.7	-14	-16	2.2%
Cc1cc(C)c(C(=O)COC(=O)c2cccc(S(=O)(=O)NCc3ccccc3)c2)cc1C
    -12	3.3	0.7	7	-14	-0.7%
O=C(CN(Cc1ccco1)C(=O)CNS(=O)(=O)c1ccccc1)NCc1ccccc1
    21	-0.8	-3.1	-4	16	1.5%
CCOC(=O)c1cc(-c2ccccc2)n(CCC(=O)Nc2cc(OCC)ccc2OCC)c1C
    ·	1.7	·	·	-8	-1.6%
CC1=C(C(N)=O)C(c2ccccn2)n2nc(-c3ccccc3Cl)nc2N1 (stereo not given)
    -1	-0.2	1.8	-10	7	0.4%
COc1cccc(-c2ccc(NC(=O)C3CCCN(Cc4cccc(C)n4)C3)cc2)c1 (stereo not given)
    -27	-0.8	2.9	-10	32	12%
Cc1cccc(N2CCN(S(=O)(=O)c3cccs3)CC2)c1C
    0	-0.3	2.8	-12	-7	-0.3%
O=C(/C=C/c1ccccc1)NC(NC(=S)Nc1cccc(Cl)c1)C(Cl)(Cl)Cl (stereo not given)
    17	3.3	1.4	-2	0	?
COCC(=O)OCC(=O)Nc1cc(C(C)(C)C)nn1-c1ccccc1
    -13	3.2	-2.8	8	15	0.4%
COC(=O)CSc1nc2[nH]ncc2c(=O)[nH]1
    -2	4.5	-0.9	0	-1	-1.8%
O=C(N/N=C/c1ccc(F)cc1)c1ccc(Br)cc1
    -11	0.7	0.3	-1	-5	2.3%[38.3 µM]
CCCCNC(=O)C(=O)N/N=C/c1ccc(OCC(=O)Nc2cccc(OC)c2)c(OC)c1
    20	0.1	10	9	-8	11%
COc1ccc(Cn2c(=N)c(C(=O)NC3CCCCC3)cc3c(=O)n4ccccc4nc32)cc1
    7	-0.2	-1.8	5	2	16%
Clc1ccccc1OCCCCn1ccnc1
    -5	0.6	1.7	-2	22	0.6%[38.3 µM]
O=C(Nc1cc2c(cc1Br)OCCO2)c1ccco1
    -18	-0.7	-2.4	1	2	16%[38.3 µM]
CCOC(=O)CCn1cnc2onc(-c3cc(OC)ccc3Cl)c2c1=O
    ·	-1.1	·	·	-18	1.0%
O=C(Nc1ccc(N2CCCCC2)c(Cl)c1)c1ncn[nH]1
    -2	-1.0	4.4	-4	3	-2.5%
Cc1cccc(NC(=S)NNC(=O)c2ccc3c(c2)OCO3)c1
    -34	0.3	-8.1	-7	-15	-2.1%

Compound activity: PubChem BioAssay, National Center for Advancing Translational Sciences (NCATS)
